AID504770 = growth inhibition of E. coli YBA685, primary screen, V. cholerae RctB inhibitors. E. coli YBA685 rctB-dependent plasmid, OD600 growth, 3 h; active compounds read low. z-score (concentration not given with the values). actives 0.27% (n = 130,000). AID 504770, 2011;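 active = z-score under -2 on both plates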;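 also: wells of about 30 µL received 100 nL stock; score is relative to mean and SD of the test wells; the first replicate is given; strong numbers were not always called active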
Ba CapD inh = Bacillus anthracis CapD inhibitors, primary screen, biochemical, fluorescence intensity; z-score (concentration not given with the values); purified CapD enzyme, fluorescence intensity read-out; active compounds read low; some hits fall short of the stated cut; CapD gamma-glutamyltranspeptidase (Bacillus anthracis Ames Ancestor); AID 492967, 2010; actives 0.23% (n = 140,000);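 active = z-score under -4 in either of two replicates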;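 also: stock transfer was 100 nL into about 40 µL; score is relative to mean and spread of the plate; one replicate is shown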
An asterisk follows results filed as active; · = not tested or not shown. These rows are one share of the data, so the mix of outcomes need not match the whole.

The first three compounds (preview)
SMILES | Ba CapD inh | AID504770
C=CCn1c(COC)nnc1SCC(=O)c1ccc(Br)cc1 | -0.52 | 2.3
COc1cc(NC(=O)CNC(=O)Cn2c(C)cc3ccccc3c2=O)cc(OC)c1OC | 16 | 1.2
CS(=O)(=O)Nc1ccc(C2=NN(C(=O)c3ccccc3)C(c3ccco3)C2)cc1 (configuration not stated) | · | -1.2

The whole of this part, from the first entry:
SMILES | Ba CapD inh | AID504770
C=CCn1c(COC)nnc1SCC(=O)c1ccc(Br)cc1 | -0.52 | 2.3
COc1cc(NC(=O)CNC(=O)Cn2c(C)cc3ccccc3c2=O)cc(OC)c1OC | 16 | 1.2
CS(=O)(=O)Nc1ccc(C2=NN(C(=O)c3ccccc3)C(c3ccco3)C2)cc1 (configuration not stated) | · | -1.2
O=C(O)C1CC=CCC1C(=O)N1CCN(c2cccc(Cl)c2)CC1 (configuration not stated) | -1.3 | ·
O=C1NC(=O)C2C1C1(c3ccccc3)C(=O)C2(c2ccccc2)C(c2ccc3c(c2)OCO3)=C1c1ccc2c(c1)OCO2 (configuration not stated) | 3.4 | ·
CCN(C(=O)Cn1cccc1C1=NC(c2ccccc2)CO1)c1cccc(C)c1 (configuration not stated) | -0.99 | -0.65
CC1(C)C(=O)N(O)C(C)(C)C(=O)N1O | 0.52 | ·
CCn1c2ccccc2n2c(C(=O)OC)c(C)nc12 | -0.21 | -0.05
CCCCCCCCCn1c(=O)c2c(nc3n2CCS3)n(C)c1=O | 0.035 | ·
Cc1cccc(OCC(=O)Oc2ccccc2NC2=NS(=O)(=O)c3ccccc32)c1 | -1.4 | ·

Another view of 3 compounds above:
COc1cc(NC(=O)CNC(=O)Cn2c(C)cc3ccccc3c2=O)cc(OC)c1OC
  Ba CapD inh: 16 | AID504770: 1.2

CS(=O)(=O)Nc1ccc(C2=NN(C(=O)c3ccccc3)C(c3ccco3)C2)cc1 (configuration not stated)
  Ba CapD inh: · | AID504770: -1.2

O=C(O)C1CC=CCC1C(=O)N1CCN(c2cccc(Cl)c2)CC1 (configuration not stated)
  Ba CapD inh: -1.3 | AID504770: ·

(next part)
SMILES | Ba CapD inh | AID504770
Cc1ccc(CN2C(=O)C3C(c4ccccc4Cl)OC4(C(=O)c5ccccc5C4=O)C3C2=O)cc1 (configuration not stated) | -0.065 | ·
Cc1cccc(-n2c3nc(=O)[nH]c(=O)c-3cc3ccccc32)c1C | 2.5 | ·
O=C(CSc1nccc(=O)[nH]1)c1cccs1 | -0.075 | -0.9
C=CCN(CC=C)S(=O)(=O)c1ccc(C(=O)N=c2sc3ccccc3n2CC)cc1 | 0.35 | -0.05
OCc1ccccc1CN1CCCCC1 | 2.7 | -0.5
Cn1cccc1C#N | · | -0.1
Cc1cccc(N(Cc2ccccc2)C(=O)c2nc3nc(C)cc(C)n3n2)c1 | · | 0.95
CN1CCN(Cc2c(O)ccc3cc(Br)ccc23)CC1 | · | -0.75
Cn1c(CC2CCS(=O)(=O)C2)n[nH]c1=S (configuration not stated) | · | 1.6
CCN(CC)C(=O)/C(C#N)=C/c1ccc(OC)cc1 | -2.5 | 0.15

(further entries)
SMILES | Ba CapD inh | AID504770
COc1cccc(Oc2ccc(OC)cc2C(=O)O)c1 | 0.16 | 0.05
COc1ccc(CC(=O)NC2CCN(S(=O)(=O)c3ccccc3C(=O)O)CC2)cc1OC | · | -1.2
Clc1ccc(NC2=NCCS2)cc1 | -0.86 | ·
COc1cc(C2NC(=O)C(C#N)=C(SC)S2)cc(OC)c1OC (configuration not stated) | -0.73 | 0.65
COC(=O)c1cc2c(s1)-c1cc(F)ccc1OC2 | 76 | -0.45
CC(=O)Nc1cc(-c2ccc(C(C)(C)C)cc2)sc1C(N)=O | 4.5 | ·
CCOC(=O)c1csc(NC(=O)CC)n1 | 0.9 | -0.4
Cc1cc(=O)[nH]c2ccc(S(=O)(=O)NC3CCCCC3)cc12 | · | 0.5
C[n+]1ccc(/C=C/c2ccc(N3CCCC3)o2)cc1 | · | 8.2
CC(=O)NS(=O)(=O)c1ccc(C)cc1 | 0.075 | -0.1

Further structures follow.
SMILES | Ba CapD inh | AID504770
Nc1c(-c2ccccc2)cnc2ncnn12 | 0.31 | -0.05
Cc1ccc2c(c1)-c1onc(C(=O)NCCCN3CCCCC3)c1CO2 | 0.52 | -0.9
NC(=O)c1ccc(NC(=O)CCCSc2ccccc2)cc1 | · | 0.1
COc1ccccc1-c1c(C(F)(F)F)oc2c(CN3CCOCC3)c(O)ccc2c1=O | -0.71 | ·
COc1cc(C=NCc2ccco2)ccc1O | -1.5 | 1.5
NC(=O)COc1ccc(-c2noc(COc3ccccc3)n2)cc1 | -0.065 | -2.3
Cn1c(=O)c2c(nc(Sc3ncnn3Cc3ccccc3)n2C)n(C)c1=O | 0.01 | ·
COCc1cc(C)nc2sc(C(=O)c3ccccc3)c(NC(=O)c3ccccc3)c12 | -0.095 | ·
CN(C)c1ccc(CN2CCN(CCOC(=O)N3CCN(C(=O)OCc4ccccc4)CC3)CC2)cc1 | -0.58 | ·
C=CCNC(=O)C(C)Oc1ccccc1 (configuration not stated) | 0.41 | -0.2

Additional records
SMILES | Ba CapD inh | AID504770
CC(C)CCn1c(=O)c2ccccc2n2c(CN(C)Cc3ccccc3)nnc12 | · | -0.15
COC(=O)c1ccc(NC(=O)C2CC(=O)N(C)C(=Nc3ccccc3OC)S2)cc1 (configuration not stated) | -0.34 | ·
Cc1cc2c3c([nH]c2cc1S(=O)(=O)N(Cc1ccco1)C1CCCCC1)CCCC3=O | -0.16 | 1.3
c1ccc(-c2csc(Cc3c[nH]c4ccccc34)n2)cc1 | -0.14 | -0.4
O=S(=O)(NC(=S)NC1CCCCC1)c1ccccc1 | · | -0.65
Cc1nc2cccnc2n1-c1ccc(CC(=O)NCCN2CCOCC2)cc1 | 0.9 | -0.95
Cc1cc(C)c2c(=O)n(C(=O)c3ccco3)sc2n1 | -0.83 | -1.9
CCOC(=O)CSc1nc2sccn2c1C=Nc1cc(Cl)cc(Cl)c1 | 7.5 | -0.2
O=C(Nc1ccc2nc(NC(=O)c3ccccc3Cl)sc2c1)c1ccccc1Cl | 0.33 | ·
N#CCCNc1ccccc1C(=O)O | 44 | -0.65

Continued:
SMILES | Ba CapD inh | AID504770
CC1(c2ccccc2)CC(C)(C)N(C(=O)C(F)(F)F)c2ccc(C(c3ccccc3)(c3ccccc3)c3ccccc3)cc21 (configuration not stated) | -0.005 | ·
COc1ccc(NC(=O)CC(NC(C)c2ccccc2)C(=O)O)cc1 (configuration not stated) | -0.065 | -0.2
CCc1ccccc1Nc1nc(N)nc(CSc2nncn2C)n1 | · | -1.1
CC(=O)N1CC(C)Oc2ccc(S(=O)(=O)NC(C)c3ccccc3)cc21 (configuration not stated) | 0.085 | 0.3
C=CCC1C(=O)N(S(=O)(=O)c2ccc(Cl)cc2)N=C1CCC (configuration not stated) | -1.1 | 2.8
N#CC(C#N)=CNc1cc(-c2ccc(Cl)cc2)sc1C(N)=O | 6.5 | 1.4
Cc1cc(C)nc(Nc2nc3ccccc3c(=O)[nH]2)n1 | · | 0.25
Cc1ccc(NC(=O)Nc2ccc(SC(F)F)cc2)cc1 | · | -0.65
O=C1c2ccccc2NC(c2ccccc2)N1NS(=O)(=O)c1ccccc1 (configuration not stated) | 0.72 | 1.2
O=C(NC1CCCC1)c1cc(-c2ccccc2O)no1 | 0.78 | 0.8

Continuation:
SMILES | Ba CapD inh | AID504770
COC(=O)CNC(=O)c1sc2nc(C)nc(N3CCN(c4ccccn4)CC3)c2c1C | -1.2 | ·
CCc1ccc(NC(=O)C(C)OC(=O)c2ccccc2NC(=O)c2ccco2)cc1 (configuration not stated) | · | -0.45
Oc1cccc(-c2csc3nc4ccccc4n23)c1 | -1 | 0.55
O=C(c1cc(C2CC2)nn1-c1ccccc1)N(CC1CCCO1)c1nc2ccccc2s1 (configuration not stated) | · | 1.6
COc1cccc(NC(=O)c2sc3ncnc(N4CCN(c5ccccn5)CC4)c3c2C)c1 | -0.83 | ·
O=C(Oc1ccc(C2Oc3ccccc3C3CC(c4ccccc4)=NN32)cc1)c1ccc(Br)cc1 (configuration not stated) | 0.06 | ·
Cc1c(C)c(C)c(CN2CCOC(c3ccccc3)C2C)c(C)c1C (configuration not stated) | -0.54 | -0.65
Cc1nc2c(c(C)c1CCC(=O)NCC(N)=O)c(=O)n(C)c(=O)n2C | 1.7 | 0
COc1cc2c(cc1OC)/C(=C/C(N)=O)NC(C)(C)C2 | 18 | -0.45
O=C(c1ccc(NS(=O)(=O)c2ccccc2)cc1)N1CCN(Cc2ccc3c(c2)OCO3)CC1 | -1.1 | -0.1

(list continues)
SMILES | Ba CapD inh | AID504770
CCOC(=O)/C(C#N)=C(\C)c1ccc(NC(C)=O)cc1 | -0.065 | -0.35
CCOc1c(Br)cc(C2C(C(=O)OC)=CN(Cc3ccc(Cl)cc3)C=C2C(=O)OC)cc1OC | 58 | ·
O=C(CCN1C(=O)C2C3C=CC(C3)C2C1=O)NC(c1ccccc1)c1ccccc1 (configuration not stated) | -0.61 | ·
O=C(Cc1ccccc1)Nn1c(SCc2cc(=O)n3ccccc3n2)nc2ccccc2c1=O | 7.5 | ·
O=C(CSc1nc2c(c(=O)n1-c1ccccc1)SCC2)N1CCCCC1 | -1.2 | 0.05
O=C(c1ccc(C(F)(F)F)cc1)N1CCN(C(=O)c2ccco2)CC1 | -1.2 | -0.9
CCc1ccc(N2COc3ccc4c(C)cc(=O)oc4c3C2)cc1 | 25 | ·
O=C(NCCCN1CCCCC1)c1[nH]nc2c1COc1ccccc1-2 | 3 | -0.1
CN(C)CCN(C(=O)c1ccc(Cl)s1)c1nc2cc3c(cc2s1)OCCO3 | -1.4 | -0.35
Brc1ccc(NCc2ccco2)cc1 | · | 0.2

Remaining list, next part.
SMILES | Ba CapD inh | AID504770
O=C(COC(=O)CSc1nc2ccccc2s1)Nc1cccc2ccccc12 | 0.015 | ·
Cc1ccc2nc(NC(=O)CCNS(=O)(=O)c3cccs3)sc2c1 | 0.4 | -0.65
O=C(O)c1cc2c3c(c1)C1C=CCC1C(c1ccc(Cl)cc1)N3CC1CC=CC21 (configuration not stated) | 0.82 | ·
N#Cc1cccc(NC(=O)COC(=O)/C=C/c2ccccc2)c1 | 0.09 | 0.25
COC(=O)C1C(=O)NC(SCC(=O)Nc2ccc(C)c(C)c2)=C(C#N)C1c1ccccc1OC (configuration not stated) | -0.29 | ·
COc1ccc(OC)c(NC(=O)CSc2nccn2-c2ccc(Cl)cc2)c1 | -0.42 | -0.5
CC(=O)CC(c1ccc([N+](=O)[O-])cc1)c1c(O)c2ccccc2oc1=O (configuration not stated) | -0.55 | ·
C=CCN(CC=C)S(=O)(=O)c1ccc(C(=O)Nc2nc3c(s2)CC(C)CC3)cc1 (configuration not stated) | 2.6 | -0.15
O=C(c1ccco1)N1CCN(C(c2ccccc2)c2sc3ncnn3c2O)CC1 (configuration not stated) | · | 0.7
CC(=O)OC[C@H]1O[C@H](O[C@H]2[C@H](OC(C)=O)[C@@H](OC(C)=O)[C@H](OC(C)=O)O[C@@H]2COC(C)=O)[C@H](OC(C)=O)[C@@H](OC(C)=O)[C@@H]1OC(C)=O | 0.06 | ·

The list continues:
SMILES | Ba CapD inh | AID504770
CCOC(=O)C1C(=O)NC(SCC(=O)Nc2ccccc2C)=C(C#N)C1c1ccccc1OCC (configuration not stated) | -0.26 | ·
CCOC(=O)c1[nH]c(C)c(CC(C)C)c1C | -0.08 | 1.1
N#C/C(=C\c1ccc(O)cc1)c1ccc([N+](=O)[O-])cc1 | -1 | ·
Cc1cc(C(=O)CSc2nc(N)cc(N)n2)c(C)n1C | · | 0.7
CC(Sc1nc2ccccc2s1)C(=O)Nc1nnc(-c2ccccc2)s1 (configuration not stated) | 0.32 | -0.95
O=C(c1ccccc1)c1nnc(-c2ccccc2)o1 | -0.83 | -2.4
CCOc1cc(/C=C2/SC(=N)N(c3nccs3)C2=O)ccc1OCCN1CCOCC1 | -3 | 0.3
CCc1nc2c(sc3nc(N4CCOCC4)c4c(c32)CC(C)(C)OC4)c(=O)o1 | 1.4 | ·
CCNC(=S)N1CCN(CCNC2=CC(=O)CC(C)(C)C2)CC1 | -0.1 | ·
C=CCN1C(=O)/C(=C2/Sc3ccc(Cl)cc3N2CC)SC1=S | -0.48 | ·

The list continues:
SMILES | Ba CapD inh | AID504770
O=C(Nc1ccccc1C(F)(F)F)c1ccc(F)c(S(=O)(=O)N2CCc3ccccc32)c1 | 0.015 | ·
Cn1c(=O)c2c(nc3n(-c4ccccc4)c(-c4ccccc4)cn23)n(C)c1=O | -0.27 | ·
Cc1cc(C)nc(NC(=O)/C=C/c2ccccc2Cl)n1 | 0.11 | -0.45
Cc1ccc(NC(=O)C(C)OC(=O)Cc2coc3cc(C)ccc23)cc1 (configuration not stated) | · | 1.8
Cc1noc(C)c1CCOC(=O)c1cc(-c2ccc(Br)cc2)nc2ccccc12 | · | 0.2
CCOC(=O)c1nn(-c2cc(C(=O)OC)cc(C(=O)OC)c2)cc1O | · | -0.1
COc1ccc(CNCC#N)cc1OC | · | -0.45
CS(=O)(=O)Nc1cc(NS(C)(=O)=O)cc(C(F)(F)F)c1 | -0.69 | -0.6
Cc1ccc(-c2n[nH]c3c2C(c2ccc4c(c2)OCO4)N(c2ccc(F)cc2)C3=O)cc1 (configuration not stated) | 0.69 | ·
O=C(O)CCCn1cc(NC(=O)c2ccco2)cn1 | 0.075 | -0.8

Later entries
SMILES | Ba CapD inh | AID504770
O=C(CCCN1C(=O)S/C(=C\C=C\c2ccccc2)C1=O)Nc1cccc(O)c1 | -0.72 | -0.45
CC(=O)Nc1cccc(C(=O)N(C)c2ccccc2)c1 | 0.24 | 0.25
CC(C)C(=O)OCC(=O)Nc1ccc(C#N)cc1 | · | 1
O=C(c1cnc(-c2ccccc2)nc1-c1ccccc1)N1CCSCC1 | 0.1 | ·
CN(C)c1cccc(C(=O)OCC(=O)c2cc3ccccc3o2)c1 | · | -0.15
CCCN(CC1CC1)C(=O)c1cc(=O)c2ccccc2o1 | -0.59 | -0.7

Compound activity deposited in PubChem BioAssay by ICCB-Longwood Screening Facility, Harvard Medical School.
